# Screens: PubChem BioAssay, several laboratories
# GALR2 agonist: GALR2 receptor agonists, primary screen, cell-based; Galanin receptor type 2 (Homo sapiens), O43603; GALR2-expressing cells, agonist activation read-out; activation, %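 (tested at 5 µM)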; 0.48% of 140,000 active; AID 803, 2007;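 active means above mean plus 3 SD of all compounds, about 5% in these data, not always enough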;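 further: 0% = vehicle buffer wells and 100% = reference agonist at full effect; tested in CHO reporter cells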
# HSV replic up: enhancers of HSV replication in host cells, fold increase, host cell viability; HSV replication augmentation in cells; maximum fold increase; 0.005% of 220,000 active;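 active means peak rise of 1.5-fold or more in the series; tested in PC3 cells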;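 further: first round at 10 µM; read as green reporter fluorescence; hits show the peak of a series up to 25 µM; 1 = signal of infected wells without compound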
# INS promoter inh: inhibitors of insulin promoter-driven GFP, primary screen, imaging, TRM-6 cells (human fetal islet line), eGFP reporter, cell count; inhibition, % at 2 µM; 0.9% of 130,000 active; reporter expression induced with tamoxifen;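 active means inhibition above the mean plus 3 SD, with well images judged a real hit on visual review, cut at about 60% in these data, passing the limit was not always enough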
# PKD1 kinase inh: inhibitors of human PKD1 kinase, biochemical, fluorescence polarization; Serine/threonine-protein kinase D1 (Homo sapiens), Q15139; 0.056% of 200,000 active; PKD1 kinase fluorescence polarization assay; inhibition, %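 (about 10 µM by stock and volumes)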;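 active means inhibition of 50% or more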;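 further: controls were vehicle for no effect and a reference inhibitor for full effect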
# Target sequence (Q15139 whole entry, looked up): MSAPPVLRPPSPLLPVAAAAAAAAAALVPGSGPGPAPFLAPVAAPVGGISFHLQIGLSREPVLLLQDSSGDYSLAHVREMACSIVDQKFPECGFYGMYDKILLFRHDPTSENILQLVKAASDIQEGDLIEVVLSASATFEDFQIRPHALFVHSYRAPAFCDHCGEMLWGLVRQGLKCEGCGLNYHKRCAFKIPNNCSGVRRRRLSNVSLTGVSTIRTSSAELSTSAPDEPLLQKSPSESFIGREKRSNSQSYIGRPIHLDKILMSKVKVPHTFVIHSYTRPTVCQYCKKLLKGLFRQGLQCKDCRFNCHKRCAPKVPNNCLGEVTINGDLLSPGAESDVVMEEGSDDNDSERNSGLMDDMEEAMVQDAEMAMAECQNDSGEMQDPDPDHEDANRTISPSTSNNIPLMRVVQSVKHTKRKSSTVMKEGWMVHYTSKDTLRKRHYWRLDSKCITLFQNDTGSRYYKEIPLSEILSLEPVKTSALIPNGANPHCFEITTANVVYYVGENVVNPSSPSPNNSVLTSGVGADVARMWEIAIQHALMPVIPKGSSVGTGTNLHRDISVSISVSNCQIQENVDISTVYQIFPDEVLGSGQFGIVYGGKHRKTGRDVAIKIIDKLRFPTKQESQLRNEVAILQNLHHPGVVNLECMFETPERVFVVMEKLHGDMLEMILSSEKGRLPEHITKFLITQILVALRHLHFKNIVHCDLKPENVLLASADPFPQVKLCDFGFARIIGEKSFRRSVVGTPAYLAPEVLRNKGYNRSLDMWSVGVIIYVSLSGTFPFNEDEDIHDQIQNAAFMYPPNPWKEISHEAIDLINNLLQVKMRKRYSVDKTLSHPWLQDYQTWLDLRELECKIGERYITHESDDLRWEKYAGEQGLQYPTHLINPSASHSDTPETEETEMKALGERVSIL
# RGS16-Gao: modulators of RGS16 binding to Galphao, primary screen, biochemical, human proteins, multiplexed bead flow cytometry | bead-based flow cytometry RGS16-Galphao binding, fluorescence; actives lie on both sides | binding response (% of control), % at 10 µM | 0.38% of 220,000 active;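 active means below 25% or above 175%, edge rows of some plates excepted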;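 further: Galphao activated by GDP with aluminum fluoride before binding; 100% = wells without compound and 0% = beads without RGS; some results beyond the cut were filed as inactive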
# INS promoter inh cell count: second read-out of INS promoter inh, no call of its own (marks repeat the call); normalized cell count, %; measured here: cell count, toxicity; reference of the scale not given here;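 cells exposed to compound for 48 h; stained nuclei by imaging scaled within each plate; lower means fewer cells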
# HSV replic up primary fold: further read-out of HSV replic up, marked with its call; fold increase; compound at 10 µM; measured here: primary screen fold increase 10 uM; tested in PC3 cells;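 GFP signal in the first replicate; 1 = infected wells without compound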
# * hit, by the source's call; i = inactive; · = not tested or not shown.
SMILES,GALR2 agonist,HSV replic up,HSV replic up primary fold,INS promoter inh,INS promoter inh cell count,PKD1 kinase inh,RGS16-Gao
Cc1ccccc1Cn1nc(C)c(NC(=O)c2cc(-c3cccs3)on2)c1C,-1.2,i,0.93,·,·,-9,105
Cn1nc(C(F)(F)F)c2cc(C(=O)Nc3ccc(C(F)(F)F)cc3)sc21,·,i,0.94,·,·,·,103
CCOC(=O)c1cc(C#N)c(N2CCN(C(=O)c3ccccc3)CC2)nc1C(F)(F)F,·,i,0.91,·,·,·,101
Nc1cc(N)nc(SCc2cccnc2)n1,-1.2,i,1,-41,94,2,99
CCOc1ccc(C2C(C(=O)Nc3ccccc3)=C(C)N=c3s/c(=C/c4cccc(OCC(=O)O)c4)c(=O)n32)cc1 (centres undefined),·,i,0.95,-7,106,4,110
O=C(c1ccc(COc2ccc(Cl)cc2)o1)N1N=C(C(F)F)CC1(O)C(F)F (centres undefined),-1.1,i,0.83,25,128,0,100
CCNc1nc(NCC)nc(SCCOC(=O)c2ccccc2)n1,-0.3,i,1,72,109,-7,100
CNC(=S)N/N=C/c1cc(C)ccc1C,·,i,0.74,·,·,-7,103
CCc1cc2cc(C)cc(C)c2nc1Cl,·,i,1.1,·,·,-9,101
CCn1c(SCC(=O)N2CCN(c3ccc(Cl)cc3)CC2)nc2ccccc2c1=O,-3.4,i,0.99,-23,163,4,101
CCOc1ccc(NC(=O)CC2C(=O)NCCN2C(=O)c2ccc(Cl)cc2)cc1 (centres undefined),·,i,1.1,-45,102,-6,104
O=C(C1=C[C@@H](c2ccc(C(F)(F)F)cc2)C[C@@H](OCCCCO)O1)N1CCN(Cc2ccc3c(c2)OCO3)CC1,·,i,0.95,·,·,5,99

# 5 entries from above, as tab-separated lines:
SMILES	GALR2 agonist	HSV replic up	HSV replic up primary fold	INS promoter inh	INS promoter inh cell count	PKD1 kinase inh	RGS16-Gao
CCc1cc2cc(C)cc(C)c2nc1Cl	·	i	1.1	·	·	-9	101
Cc1ccccc1Cn1nc(C)c(NC(=O)c2cc(-c3cccs3)on2)c1C	-1.2	i	0.93	·	·	-9	105
CCNc1nc(NCC)nc(SCCOC(=O)c2ccccc2)n1	-0.3	i	1	72	109	-7	100
CCOc1ccc(C2C(C(=O)Nc3ccccc3)=C(C)N=c3s/c(=C/c4cccc(OCC(=O)O)c4)c(=O)n32)cc1 (centres undefined)	·	i	0.95	-7	106	4	110
CCOc1ccc(NC(=O)CC2C(=O)NCCN2C(=O)c2ccc(Cl)cc2)cc1 (centres undefined)	·	i	1.1	-45	102	-6	104

# Continuation.
SMILES,GALR2 agonist,HSV replic up,HSV replic up primary fold,INS promoter inh,INS promoter inh cell count,PKD1 kinase inh,RGS16-Gao
COc1ccc(/C=C/C(=O)NC(=S)NCc2ccccc2)cc1OC,·,i,0.97,·,·,·,102
CC(NC(=S)Nc1cccc(F)c1)C(c1cccs1)N1CCOCC1 (centres undefined),·,i,1.1,·,·,·,100
COc1ccc(/C=C/CN2CCCC(C(=O)c3ccc(OC)c(F)c3)C2)cc1 (centres undefined),·,i,1.1,·,·,-4,95
CCOC(=O)N1CCC(NC(=O)c2cc3cc4cc(OC)ccc4nc3o2)CC1,-0.1,i,0.74,-21,131,-2,97
COc1ccccc1C(=O)Oc1ccc(N2C(=O)CCC2=O)cc1,-2.6,·,·,-17,116,-8,99
CCOC(=O)c1sc(NC(=O)CSc2nc(C)cc(C)n2)c(C#N)c1C,-1.5,i,0.88,-20,204,-16,105
CN(C)CCNC(=O)NC1CCCCC1,-0.7,i,0.97,21,111,-2,88
O=C(CSc1ccc2nnc(-c3ccccn3)n2n1)NCC1CCCO1 (centres undefined),-4.2,i,0.74,·,·,-3,101
N#C/C(=C\c1cc(Cl)c(OCc2ccc(Cl)cc2)c(Cl)c1)C(N)=O,·,i,0.89,·,·,·,105
COC(=O)C1=C(C)N(CCCC(=O)O)C(=O)NC1c1cccs1 (centres undefined),-2.1,i,0.83,-295,65,0,94
CNC(=S)N1N=C(c2ccc(Br)cc2)CC1c1ccc(OC)cc1 (centres undefined),-0.9,i,0.95,17,91,-1,113
Cc1ccc(C(=O)c2c[nH]c(C(=O)NCCCN3CCOCC3)c2)cc1,0.9,i,0.86,24,161,4,103
Cc1ccc(/C=C/C(=O)Nc2ccccc2C(N)=O)cc1,0.1,i,0.96,-3,124,-10,103
NC(=O)C(c1ccc(Cl)cc1Cl)c1ncc(C(F)(F)F)cc1Cl (centres undefined),-2.5,i,0.61,3,88,3,97
O=C(O)c1ccc(CSc2nnc(-c3ccccc3)n2-c2ccccc2)cc1,·,i,1.1,·,·,·,108
COC(=O)C(Cc1c[nH]c2ccccc12)NC(=O)c1cccs1 (centres undefined),·,i,1,·,·,·,104
O=C(CCCOc1ccc(Cl)cc1Cl)Nc1ncccn1,·,i,1.1,·,·,·,105
COC(=O)[C@H](C)NC(=O)NCc1ccccc1F,-1.8,i,0.99,-100,59,4,89
Cc1cc(C)c(C(CC(=O)c2cccs2)C(C#N)C#N)c(C)c1 (centres undefined),-2.7,i,0.66,42,135,-14,106
COc1cc(Cl)c(S(=O)(=O)NCc2ccccn2)cc1Cl,0.5,i,0.75,22,127,9,106
COC(=O)c1c(NC(=O)CSc2nncs2)sc2c1CCCCC2,-0.8,i,0.73,6,92,7,99
O=C(Nc1ccccc1)c1ccc(-c2ccccc2)s1,·,i,0.98,·,·,-1,104
CS(=O)(=O)NCCCCNc1ccc(C(F)(F)F)cc1[N+](=O)[O-],·,i,0.92,·,·,6,102
O=C(NCCn1cccc1)c1cccc2ccccc12,-2.2,i,0.73,-40,6,-2,104

# Single values from the results shown.
# Under RGS16-Gao, `O=C(O)c1ccc(CSc2nnc(-c3ccccc3)n2-c2ccccc2)cc1` has the entry 108
# Under RGS16-Gao, `COC(=O)C(Cc1c[nH]c2ccccc12)NC(=O)c1cccs1` (centres undefined) has the entry 104

# Other entries follow:
SMILES,GALR2 agonist,HSV replic up,HSV replic up primary fold,INS promoter inh,INS promoter inh cell count,PKD1 kinase inh,RGS16-Gao
COc1ccc(/C=C/C(=O)c2c(O)ccc3c(C)cc(=O)oc23)cc1,1.3,i,0.72,·,·,-4,91
COc1cc(NC(=S)NCCCN2CCOCC2)cc(OC)c1OC,·,i,1.1,-18,59,-9,100
CCOc1ncccc1C(=O)OCc1ccc(C(=O)OC)cc1,2.2,i,0.81,·,·,-4,105
OC(c1cc(-c2ccc(C(F)(F)F)cc2)nc(C(F)(F)F)c1)C1CCCCN1 (centres undefined),·,i,0.62,·,·,·,102
Cc1ccccc1NC(=O)NC(C)(C)CC(C)(C)C,·,i,1,·,·,-5,103
O=C(Nc1cccnc1)c1cc(-c2ccccc2O)on1,·,i,0.98,·,·,·,99
COc1ccc(/C=C2/Sc3ccc(C(=O)N4CCc5ccccc5C4)cc3NC2=O)cc1,-1.3,i,0.91,-25,167,-4,114
Cc1[nH]n(-c2ccccc2)c(=O)c1C(C[N+](=O)[O-])c1ccc(Cl)cc1 (centres undefined),-0.7,i,0.89,25,108,3,99
CCn1nc([N+](=O)[O-])c(C(C#N)c2nc3cc(C(F)(F)F)ccc3s2)c(Cl)c1=O (centres undefined),-0.8,i,0.86,-19,62,3,83
CCCCCN(C(=O)NC(=O)NCCCC)S(C)(=O)=O,0.3,i,0.79,·,·,-15,104
C/C(=C\c1ccco1)C1C(C#N)=C(N)Oc2n[nH]c(-c3ccccc3)c21 (centres undefined),0.3,i,1,·,·,3,103
COc1cccc(C(=O)Nc2ccncc2)c1,·,i,1.1,·,·,0,98
Cc1cc(=O)[nH]c(N/N=C/CCc2ccccc2)n1,·,·,·,-14,98,2,97
COc1ccc(/C(C)=N/NC(=O)c2nc(C)cc(C)n2)cc1,0.5,i,1,0,117,-7,103
COc1ccc(N=C2S/C(=C\c3ccc(N4CCOCC4)o3)C(=O)N2CCc2c[nH]c3ccccc23)cc1,1.5,i,0.75,43,75,-13,97
COc1cc(C)nc(NC(=S)N(C)C(=O)c2ccccc2)n1,·,i,0.91,·,·,·,98
O=C(COc1ncnc2cc([N+](=O)[O-])ccc12)N(CCc1ccccc1)Cc1ccccc1,1.7,i,0.9,0,119,-9,106
CCCNC(=O)C1CC(=O)N(c2ccc(OCC)cc2)C1 (centres undefined),·,·,·,31,88,-1,107
CS(=O)(=O)N(CC(=O)N1CCCC1)c1cccc(Cl)c1,0.0,i,0.99,·,·,-4,101
CC1CN(CC(=O)Nc2ccc([N+](=O)[O-])cc2Br)CC(C)O1 (centres undefined),·,i,0.88,·,·,-1,102
O=C(COc1ccc2c(c1)OCO2)Nc1ccc2c(c1)oc1ccccc12,-1.4,i,1.1,49,136,-6,102
COc1cc(N2C(=O)CC3(CCCC3)CC2=O)cc(OC)c1OC,·,i,0.91,·,·,·,101
CCn1cc(CNCc2cn(C)nc2-c2ccc(C3CCCCC3)cc2)cn1,·,i,0.85,·,·,-2,102
COC(=O)Nc1ccc(S(=O)(=O)N2CCC(C(=O)N3CCCCC3C)CC2)cc1 (centres undefined),·,i,0.76,·,·,1,94
CC(C)n1nc(C(=O)Nc2nc3ccccc3[nH]2)c2ccccc2c1=O,·,i,0.91,·,·,-3,99
Cc1ccccc1-c1noc(C2CCCCC2)n1,-0.5,i,1.3,27,63,-2,101
S=c1[nH]nc(CSCCOc2ccccc2)o1,·,i,1.1,·,·,·,100
COc1ccccc1-c1noc(CCCC(=O)Nc2ccc(C(N)=O)cc2)n1,·,i,0.88,·,·,·,129
CCOc1ccc(/C(O)=C2\C(=O)C(=O)N(CCOCCO)C2c2ccccc2OC)cc1 (centres undefined),-2.0,i,0.94,35,73,-1,98
Cc1ccc(C23CC4CC(CC(NC(=O)NCCN(C)C)(C4)C2)C3)cc1,-0.5,i,0.61,-26,127,-3,80
CCOc1ccc(OCCCC(=O)O)cc1,0.4,i,0.87,-12,153,-1,106
CCOc1ccc(NCC(=O)c2ccc(C)cc2)cc1,·,i,1,46,146,1,109
O=C(NCc1cccs1)C1CCCN(S(=O)(=O)c2cccs2)C1 (centres undefined),-2.1,i,0.9,·,·,-1,103
O=C(NCc1ccc(F)cc1)C1CCC(CNc2c(N3CCOCC3)c(=O)c2=O)CC1 (centres undefined),·,i,0.92,·,·,·,4.0*
OC(COCC1COc2ccccc2O1)CN1CCN(c2ccccc2)CC1 (centres undefined),-2.0,i,0.91,-6,75,-18,78
CCOC(=O)c1sc(-c2cccc(C(F)(F)F)c2)nc1O,·,i,1.1,·,·,·,96
CC(=O)Nc1ccc(S(=O)(=O)NC2(C(F)(F)F)NC(=O)N(C3CCCC3)C2=O)cc1 (centres undefined),-1.4,i,0.8,41,140,-4,101
Nc1ncc(-c2nnnn2-c2ccc(Cl)cc2)c(-c2ccc(Cl)cc2)n1,-1.6,i,0.62,·,·,11,108
CCC(=O)OCc1cc2cccc(C)c2[nH]c1=O,-1.6,i,0.88,·,·,2,99
COc1ccc(OCCC(=O)OCc2c(C)noc2C)cc1,-0.9,i,0.93,4,107,-1,86
CCOc1ccc(Oc2nc(NCC(C)C)nc(N(C)C)n2)nn1,-2.6,i,1,40,124,6,125
Cc1cc(C(=O)N2CCc3ccccc32)n(-c2ccccc2)n1,-0.1,i,0.92,0,146,-14,101
Clc1ccc2oc(-c3ccccc3)nc2c1,-1.4,i,0.93,14,62,-2,102
C=CCNC(=O)C1=NOC(CNC(=O)c2c(-c3ccccc3Cl)noc2C)C1 (centres undefined),-2.2,i,1.1,19,57,10,102
Cc1ccc(C)c(S(=O)(=O)Nc2nc(C)c(C(=O)Nc3ccccc3)s2)c1,-0.3,i,1.2,-31,72,-3,102
O=C(Nc1cccc(O)c1)N1CCOCC1,-2.1,i,1,45,149,1,114
O=C1c2ccccc2S(=O)(=O)N1CC(O)Cn1c2ccccc2c2ccccc21 (centres undefined),0.5,i,0.84,-49,148,-3,110
Cc1nc2c(ccc3c([N+](=O)[O-])cccc32)c(C)c1C,·,i,1,14,96,2,101
FC(F)(F)c1ccc2c(c1)nc1n2CCCC1,-0.8,i,1.1,73*,131*,-4,98
COc1ccccc1CN1C2CCCC1CC(NC(=O)/C=C/c1ccccc1)C2 (centres undefined),·,i,0.84,-15,70,-1,106
N#Cc1cc(-c2ccccc2)cnc1Cl,-2.4,i,0.91,·,·,-5,102
O=C(Nc1ccccc1)Nc1nnc(-c2ccccc2)s1,·,i,1,·,·,·,109
NS(=O)(=O)c1ccc(NC(=O)COC(=O)c2ccc3c(c2)OCCO3)cc1,·,i,0.87,·,·,-3,102
O=C(c1ccc(COc2c(F)c(F)c(F)c(F)c2F)o1)N1CCOCC1,-1.2,i,0.89,-31,93,-2,102
